PrP 5UTR inh: inhibition of PrP 5' UTR reporter expression; cell-based PrP 5' UTR mRNA reporter, plate reader; inhibition, % (no concentration beside the values); 0.35% of 340,000 active; AID 488862, 2010;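 active = every replicate at 50% or more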;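 note: 0 = median of the neutral control wells; tested in H4 reporter cells; numbers are from one replicate; inactives centre near -14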
BJeLR lethal: MLPCN primary cell-based screen for lethality selective to Ras in HRASV12 cells; BJeLR (HRASV12) viability, CellTiter-Glo ATP luminescence, 48 h; reference of the scale not given here; inhibition, % (no concentration beside the values); 0.17% of 300,000 active; AID 1554, 2009;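 active = replicate mean above 50%; inconclusive = above 50% but judged a plate artefact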;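 note: 50 nL library stock added to about 25 µL; numbers are from one replicate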
Sa ugtP lethal: growth inhibition of ugtP-null S. aureus, primary screen, RN4220 ugtP deletion, OD600; 16 h; some inactives read as strong as hits; growth inhibition, % (concentration not given with the values); 0.54% of 330,000 active; AID 1259309, 2017;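 active = z-score under -3 and OD600 up to 0.15 on both plates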;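 note: plate controls were untreated wells for no effect and antibiotic for full effect; wells of about 80 µL received 100 nL stock; the first replicate is given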
Autofluor counter: compound fluorescence in toxin protease inhibitor counterscreen; compound autofluorescence counterscreen, microsphere flow cytometry; active compounds read high; 3.1% of 360,000 active; fluorescence intensity (no concentration beside the values); AID 624483;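 active = at least 3 SD above the mean of all compounds, about 16000 in these data; inconclusive = too few beads counted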;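 note: 100 nL of 1 mM stock went into each well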
RN4220 kill: growth inhibition of S. aureus RN4220, primary screen, OD600 | 0.33% of 330,000 active | inhibition, % (concentration not given with the values) | 16 h;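 active = z-score of -3 or lower and OD600 up to 0.18 on both plates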;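 note: plate controls were untreated cells for no effect and reference antibiotic for full effect; stock transfer was 100 nL into about 80 µL; one replicate is shown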
Mtb hypoxia inh: PubChem AID 1159583 | fluorescence inhibition, % (no concentration beside the values) | 0.1% of 300,000 active | M. tuberculosis hypoxia-regulated fluorescent reporter, fluorescence;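 active = 35 to 45% if threefold the growth effect, above 45% if 1.5-fold the growth effect; inactive = the rest, general growth blockers included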;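 note: wells of about 50 µL received 100 nL stock; 0% = vehicle wells and 100% = reference inhibitor wells; whole bacteria with a GFP reporter of the hypoxia response; strong numbers were not always called active; many hits fall short of the cut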
Mtb hypoxia inh growth: second read-out of Mtb hypoxia inh, no call of its own (marks repeat the call); growth inhibition, %; measured here: M. tuberculosis growth (absorbance);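 0% = vehicle and 100% = reference antibiotic; read after six days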
* marks the source's active call; other numbers are inactive results; ? = inconclusive; · = no result given.

Below each SMILES: BJeLR lethal	Sa ugtP lethal	Autofluor counter	Mtb hypoxia inh	Mtb hypoxia inh growth	PrP 5UTR inh	RN4220 kill
1: O=c1[nH]c(/C=C/c2cccnc2)c([N+](=O)[O-])c(=O)[nH]1
    -4.9	-0.8	4324	3.7	-3.0	-3.6	6.5
2: CCN(CC(=O)Nc1c(F)cccc1F)C(=O)CC1CCCCC1
    ·	5.7	3523	8.6	9.1	-31.0	5.8
3: COc1ccc(C(=O)N(C)Cc2ccc(C)o2)cc1OC1CCN(C(C)=O)CC1
    3.9	2.6	4251	8.2	7.3	-10.6	1.1
4: COc1ccc(OC(C)C(=O)NCCc2nc3ccccc3[nH]2)cc1 (configuration not stated)
    13.3	-1.8	2436	2.5	1.4	-9.8	-0.8
5: C1CN(c2nc3nonc3nc2N2CCOCC2)CCO1
    10.0	-1.7	·	5.4	7.6	·	5.3
6: CN(C)c1c2ccccc2nc2c(F)c(F)c(F)c(F)c12
    2.0	6.5	4718	3.1	1.5	-83.4	4.4
7: Cc1cccc(C)c1OC(=O)CN(c1ccc(Cl)cc1)S(C)(=O)=O
    2.2	-7.5	4095	8.7	14.8	4.0	0.5
8: CCOc1ccc(NS(=O)(=O)c2cccc(C(=O)NCC3(N(C)C)CCCCC3)c2)cc1
    ·	10.3	?	-1.0	6.9	-19.4	0.5
9: CCC(CC)C(=O)Nc1c2c(nn1-c1ccc(F)cc1)CS(=O)(=O)C2
    -7.0	6.4	3517	-1.4	7.0	-12.9	3.5
10: O=C(NN=Cc1cccn1-c1ccc(O)cc1)c1cccc2ccccc12
    ·	-2.9	·	-2.1	-7.4	·	0.5
11: COC(=O)c1cc(COC(=O)COc2ccc(C)c(C)c2)oc1C
    0.3	1.6	3620	-10.1	4.6	3.5	3.1
12: Cc1cc(C(=O)NNC(=O)c2nn(C)c(=O)c3ccccc23)c(C)o1
    -1.8	10.1	4254	5.9	8.4	-29.8	4.2
13: COc1c(OC2OC(CO)C(O)C(O)C2O)cc2c(c1OC)-c1ccc(SC)c(=O)cc1C(NC(C)=O)CC2 (configuration not stated)
    ·	6.1	·	6.8	5.4	·	7.2
14: COc1ccccc1NC(NC(=O)c1cccnc1)C(Cl)(Cl)Cl (configuration not stated)
    1.2	-2.9	4487	2.6	-0.6	-6.4	1.0
15: O=C(CS(=O)(=O)c1ccccc1)NCc1ccccc1
    -9.9	7.5	4627	5.1	-11.7	-23.7	0.8
16: CC(=O)Nc1cc2nc(C)n(Cc3ccc([N+](=O)[O-])cc3)c2nc1C
    -8.1	17.6	4644	6.5	4.7	-17.9	3.0
17: CCCn1cc(CN2CCCC(C(=O)c3ccc4c(c3)OCO4)C2)c(C)n1 (configuration not stated)
    -0.3	7.1	6273	4.4	5.2	-3.0	-3.1
18: COc1ccc(-c2cc(C(=O)Nc3cc(OC)c(OC)c(OC)c3)no2)cc1OC
    2.1	-0.5	11198	6.8	5.9	-29.6	2.5
19: O=C(CSc1nnc(-c2ccccc2NC(=O)c2ccccc2)o1)OC1CCCCC1
    ·	-3.7	2693	·	·	-13.4	0.9
20: CCOC(=O)c1cnn(-c2ccc(C)cc2)c1N
    -6.6	-2.0	4077	·	·	-45.1	0.2
21: O=C1C=C(c2ccc3ccccc3c2)CC(c2ccc(F)cc2)C1 (configuration not stated)
    ·	12.4	·	5.0	4.5	·	1.0
22: CC(=NNC(=O)CNC(=O)c1ccccn1)c1cccc([N+](=O)[O-])c1
    ·	-3.8	·	-5.1	3.6	·	3.7
23: CCCn1c(N)c(C(=O)CSc2nnc(C)n2Cc2ccccc2)c(=O)n(C)c1=O
    0.5	3.7	3074	9.8	7.5	-5.0	-0.3
24: Cc1cc(F)ccc1S(=O)(=O)N1CCC2(CC1)OCCN2S(=O)(=O)c1cccs1
    15.9	7.8	?	3.4	4.9	-12.6	4.0
25: O=C(OCC(=O)N1CCOCC1)c1cccc(F)c1
    -1.5	7.0	5560	9.8	14.6	-26.6	1.0
26: O=C(O)/C=C/C(=O)NCCC1=CCCCC1
    -5.9	·	2249	·	·	-26.8	·
27: COC(CNC(=O)c1ccc2c(c1)nc(C)n2-c1cccc(F)c1)OC
    0.8	9.2	21945*	2.4	4.0	-2.1	-1.9
28: CCc1nn(CC(=O)NCCCN(C)C2CCCCC2)c(=O)c2cc3occc3n12
    4.4	8.7	4355	6.6	1.0	-9.2	2.6
29: O=C(CNC(=O)c1ccco1)N/N=C/c1cccs1
    -19.5	·	6111	·	·	-29.5	·
30: O=C(Nc1ccc(Br)cc1)c1cccc(OC(=S)N2CCOCC2)c1
    3.5	-2.1	4226	15.4	5.1	-18.2	-2.8

Two entries from above in a different format.
#20 CCOC(=O)c1cnn(-c2ccc(C)cc2)c1N
#25 O=C(OCC(=O)N1CCOCC1)c1cccc(F)c1
entry no.	20	25
BJeLR lethal	-6.6	-1.5
Sa ugtP lethal	-2.0	7.0
Autofluor counter	4077	5560
Mtb hypoxia inh	·	9.8
Mtb hypoxia inh growth	·	14.6
PrP 5UTR inh	-45.1	-26.6
RN4220 kill	0.2	1.0

Following part:
Below each SMILES: BJeLR lethal	Sa ugtP lethal	Autofluor counter	Mtb hypoxia inh	Mtb hypoxia inh growth	PrP 5UTR inh	RN4220 kill
31: COC(=O)Cn1c(=NC(=O)c2sc3ccccc3c2Cl)sc2cc(S(N)(=O)=O)ccc21
    -1.8	·	2040	·	·	-10.3	·
32: CC(=O)c1c(O)ccc2c(-c3ccccc3)cc(=O)oc12
    -3.8	-4.5	2504	1.2	3.0	-7.4	12.4
33: Cc1ccc(NC(=O)CCC(=O)NNC(=O)c2ccccc2[N+](=O)[O-])c(C)c1
    -1.1	1.5	3457	3.5	-5.9	-22.7	1.4
34: COc1cccc(C(=O)Nc2nc3ccccc3[nH]2)c1
    -0.3	-12.7	2887	-3.1	-1.8	31.6	-5.4
35: CCC(C)c1ccc(NC(=S)N2CCN(c3ccccn3)CC2)cc1 (configuration not stated)
    1.0	-2.6	4075	10.3	-0.5	-14.6	4.8
36: CCN1CCCC1CNC(=O)CSCc1nc(-c2ccccc2C)oc1C (configuration not stated)
    -6.0	8.2	·	3.6	-8.3	-10.7	4.1
37: Cc1nc(NS(=O)(=O)c2ccccc2)sc1C(=O)NN=Cc1ccccc1
    ·	10.7	·	-9.5	-8.3	·	5.2

A different layout for 2 compounds above:
36	CCN1CCCC1CNC(=O)CSCc1nc(-c2ccccc2C)oc1C (configuration not stated)
  BJeLR lethal: -6.0 | Sa ugtP lethal: 8.2 | Autofluor counter: · | Mtb hypoxia inh: 3.6 | Mtb hypoxia inh growth: -8.3 | PrP 5UTR inh: -10.7 | RN4220 kill: 4.1

37	Cc1nc(NS(=O)(=O)c2ccccc2)sc1C(=O)NN=Cc1ccccc1
  BJeLR lethal: · | Sa ugtP lethal: 10.7 | Autofluor counter: · | Mtb hypoxia inh: -9.5 | Mtb hypoxia inh growth: -8.3 | PrP 5UTR inh: · | RN4220 kill: 5.2

By substructure, the entries above containing two or more sulfur atoms (3)
Below each SMILES: BJeLR lethal	Sa ugtP lethal	Autofluor counter	Mtb hypoxia inh	Mtb hypoxia inh growth	PrP 5UTR inh	RN4220 kill
24: Cc1cc(F)ccc1S(=O)(=O)N1CCC2(CC1)OCCN2S(=O)(=O)c1cccs1
    15.9	7.8	?	3.4	4.9	-12.6	4.0
31: COC(=O)Cn1c(=NC(=O)c2sc3ccccc3c2Cl)sc2cc(S(N)(=O)=O)ccc21
    -1.8	·	2040	·	·	-10.3	·
37: Cc1nc(NS(=O)(=O)c2ccccc2)sc1C(=O)NN=Cc1ccccc1
    ·	10.7	·	-9.5	-8.3	·	5.2

Screens deposited in PubChem by several laboratories.
